TDP1 block – TDP1 (human) enzyme inhibition. 350,000 compounds, 0.28% hits. recombinant TDP1, AlphaScreen DNA substrate cleavage. Potency, µM (titrated, usually from 130 µM), for the others: at the top dose activity change, negative = inhibition, actives largely listed as inhibitors. Q9NUW8; further: nearly all actives have a fitted effect of over 40% in size
Target sequence (Q9NUW8 whole entry, looked up): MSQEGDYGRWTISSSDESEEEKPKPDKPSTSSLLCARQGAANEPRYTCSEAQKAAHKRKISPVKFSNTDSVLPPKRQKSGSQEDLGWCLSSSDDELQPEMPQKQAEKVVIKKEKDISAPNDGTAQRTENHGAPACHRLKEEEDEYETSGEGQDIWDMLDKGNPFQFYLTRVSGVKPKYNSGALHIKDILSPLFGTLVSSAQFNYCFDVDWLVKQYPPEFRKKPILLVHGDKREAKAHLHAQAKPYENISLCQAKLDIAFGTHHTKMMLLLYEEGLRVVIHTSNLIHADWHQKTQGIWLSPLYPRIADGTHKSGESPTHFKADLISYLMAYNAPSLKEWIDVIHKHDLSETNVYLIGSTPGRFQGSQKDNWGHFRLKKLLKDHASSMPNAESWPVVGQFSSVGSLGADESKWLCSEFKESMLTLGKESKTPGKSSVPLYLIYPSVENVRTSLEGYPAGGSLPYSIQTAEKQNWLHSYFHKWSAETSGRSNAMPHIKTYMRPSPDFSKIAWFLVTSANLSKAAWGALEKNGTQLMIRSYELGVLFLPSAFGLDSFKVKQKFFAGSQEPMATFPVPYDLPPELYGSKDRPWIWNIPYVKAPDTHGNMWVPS
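Compounds were preincubated with Tdp1 (1 nM final) for 15 min at room temperature before substrate (15 nM final) started a 5 min reaction; beads (10 ug/ml final) were then added for 10 min before AlphaScreen detection.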
N370S GC – inhibits or activates N370S mutant glucocerebrosidase | N370S GC spleen homogenate, 4MU-glucoside fluorescence | 330,000 compounds, 0.092% hits | P04062 | Potency, µM (series often up to 59.4 µM), without a hit: at the top dose activity change, negative = inhibition, hits mostly inhibitors;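 further: 0% = full enzyme activity and -100% = no enzyme basal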
An asterisk follows results filed as active; ? = inconclusive; . = no result given; & = joins results of further samples; [ ] = another dose, or the depositor's remark. The call rests on the fitted dose curve; in most records, active means well fitted curve in the direction sought with a large enough effect; inconclusive means small, poorly fitted or top-dose-only effect, or another doubt; inactive means no such curve, though single readings can be large; an effect the other way counts as inactive or inconclusive. Unless noted, on the % scale 0 is the no-effect control and ±100 the full control effect; potency means the concentration at half of the fitted maximal effect.

Sequence of screens: TDP1 block, N370S GC
1) COC(=O)c1ccc(CSc2ccc3nnc(-c4ccccc4)n3n2)o1
 : 13.0%, ?
2) Cc1ccc2c(c1)N(Cc1ccc3c(c1)OCO3)C(=O)C(C)O2 (stereo unspecified)
 : 6.1%, 8.2%
3) COc1ccc(CNC(=O)CN2CCC(C(=O)c3ccc(OC)cc3)CC2)cc1
 : -2.1%, -0.6%
4) CN(C)C(CNC(=O)c1ccccc1OCc1ccc(Cl)cc1)c1ccco1 (stereo unspecified)
 : ., 0.1%
5) CCC1CCCCN1CCCNC(=O)c1c(O)nc2ccccn2c1=O (stereo unspecified)
 : 2.3%&-1.0%, 2.6%
6) COC(=O)c1sccc1NC(=O)c1csc(C)c1
 : -3.1%, 11.6%
7) COc1ccc(OC)c(NC(=O)COC(=O)CN2C(=O)NC3(CCCC3)C2=O)c1
 : -0.2%, .
8) CC(=O)c1cccc(NC(=O)N2CCc3ccccc3C2)c1
 : 6.6%, -19.0%
9) O=C(/C=C/c1cccc(Cl)c1)c1ccc([N+](=O)[O-])o1
 : ., 0.5%
10) C/C(=N\NS(=O)(=O)c1ccc(Cl)cc1)c1ccc(NC(=O)c2ccco2)cc1
 : 0.0%, -4.5%
11) C=CCN=C(NC#N)SCc1ccccc1Cl
 : 4.9%, -4.4%
12) CCCCn1c(N)c(N(CC)C(=O)c2cccc(F)c2)c(=O)[nH]c1=O
 : -5.6%, -4.6%
13) Cc1n[nH]c(=S)n1/N=C/c1ccc(OCc2ccc(Cl)cc2)cc1
 : 3.4%, -3.3%
14) Cc1cc(C2C(C#N)=C(N)SC(N)=C2C#N)c(C)s1
 : 6.8%, -6.1%
15) CCCN(CCC)CCCNC(=O)C1c2cc(OC)c(OC)cc2C(=O)N(C)C1c1cccs1 (stereo unspecified)
 : 5.1%, 1.1%
16) Cc1ccccc1C(=O)c1c[nH]c(C(=O)NCC2CCCO2)c1 (stereo unspecified)
 : 0.5%, 0.4%
17) COc1ccc(-c2nnc(SCC(=O)Nc3nc4ccccc4s3)n2C)cc1
 : 5.7%, -4.3%
18) CCOCCCn1c(=S)[nH]c2cc(C(=O)NCC(OC)OC)ccc2c1=O
 : 2.6%, 2.8%
19) Cc1cccc(C(=O)OCCN2CCOCC2)c1
 : ., -9.8%
20) CC(=O)N/C(=C\c1ccccc1)C(=O)Nc1ccc(O)cc1
 : 2.8%, 10.2%

Single records (already shown). Order of values: TDP1 block | N370S GC
Record of CCOCCCn1c(=S)[nH]c2cc(C(=O)NCC(OC)OC)ccc2c1=O → 2.6% | 2.8%
Record of COc1ccc(-c2nnc(SCC(=O)Nc3nc4ccccc4s3)n2C)cc1 → 5.7% | -4.3%

Next part:
Sequence of screens: TDP1 block, N370S GC
21) Cc1nn(C)c(C)c1S(=O)(=O)N1CCCC(C(=O)NC2CCCCC2)C1 (stereo unspecified)
 : 4.0%, 7.9%
22) CCCN1Cc2cccc(C(=O)NCCc3cccc(C)c3)c2C1=O
 : ., 22.6%
23) CC(=O)Nc1ccc(NC(=O)c2sc(-c3ccccc3)nc2C)cc1
 : ., -6.2%
24) O=C(NNC(=S)Nc1ccc(Cl)cc1Cl)c1ccncc1
 : -1.8%, 25.3%
25) Cc1c2cnn(CC(=O)NCc3ccccn3)c(=O)c2c(C)n1Cc1ccc(Cl)cc1
 : 5.4%, -3.1%
26) O=C(NCCc1ccc2c(c1)OCCO2)c1ccccc1F
 : -4.5%, 8.3%
27) COC(=O)[C@@H]1[C@@H]2C[C@H]3c4[nH]c5ccccc5c4CCN3C[C@@H]2CC[C@@H]1O
 : 0.0%, -12.7%
28) O=C(c1cc2ccccn2n1)N1CCN(c2ccccn2)CC1
 : 6.1%, 1.9%
29) Cn1cccc1CC(=O)NNC(=O)Nc1ccc(Cl)cc1
 : 2.6%, 5.6%
30) COc1cc2c(cc1OC)C(COc1ccc(F)cc1)NCC2 (stereo unspecified)
 : 1.6%, -11.7%
31) CCc1nccn1S(=O)(=O)c1cc(OC)ccc1OC
 : ., -8.4%
32) CC(C)C(NS(=O)(=O)c1cccc(C(F)(F)F)c1)C(=O)O (stereo unspecified)
 : 7.1%, 4.4%
33) CCOC(=O)/C(=N\Nc1ccccc1[N+](=O)[O-])c1csc(N)n1
 : 8.1%, 16.4%
34) CC(NS(=O)(=O)c1ccc(CCC(=O)NCC2CCCO2)cc1)c1ccccc1 (stereo unspecified)
 : 1.0%[56.1 µM], 9.9%
35) CCOC(=O)c1sc2nc(C)[nH]c(=O)c2c1C
 : 0.0%, 6.2%
36) O=C(Nc1cccc(N2CCCC2)c1)c1cccs1
 : 4.4%, -9.0%
37) O=C(NCCO)Nc1ccc2nsnc2c1
 : 3.7%, 0.9%
38) COc1ccc(CCNc2ccc(S(=O)(=O)N3CCCC3)cc2[N+](=O)[O-])cc1
 : 4.6%, 6.9%
39) C=CCn1c(SCC(=O)NCc2ccco2)nnc1C1CCCCC1
 : 3.2%, 0.5%
40) Cc1cc(NC(=O)c2cccc(S(=O)(=O)N(C)C)c2)n(-c2ccccn2)n1
 : 5.1%, 23.7%
41) COc1ccccc1CN1CCN(C(CC(C)C)c2nnnn2Cc2cccs2)CC1 (stereo unspecified)
 : 2.8%, -17.5%
42) CCOC(=O)/C(C#N)=C1\CC2CCC1(C)C2(C)C (stereo unspecified)
 : 5.3%, 10.9%
43) CC(=O)N1CCOc2ccc(S(=O)(=O)N3CCC(C(=O)Nc4ccccc4F)CC3)cc21
 : 0.2%, 1.7%
44) Cc1cccc(NC(=O)c2ccccc2-c2ccccc2)c1
 : 1.8%, 5.3%
45) CCc1ccc(C(=O)NCC2COc3ccccc3O2)o1 (stereo unspecified)
 : 4.1%, 5.7%
46) CCOc1ccc(NC(=O)CCC(=O)NNS(=O)(=O)c2ccccc2[N+](=O)[O-])cc1
 : 5.1%, 11.9%
47) NC(=O)NC(=O)COC(=O)[C@H](Cc1ccccc1)NC(=O)c1cccs1
 : 5.9%, 0.1%
48) COc1ccccc1/C=N/NC(=O)Cn1cnc([N+](=O)[O-])n1
 : 2.5%, 0.0%
49) CCNS(=O)(=O)c1ccc(CCC(=O)Nc2ccc(C(=O)OC)cc2)cc1
 : 2.7%, 5.8%
50) COc1ccc(NC(=O)c2cccnc2Nc2ccccc2)cc1
 : 3.9%, 8.0%
51) Cc1ccc(C(=O)N2CCN(C(=O)CN3CCCC3)C2)cc1
 : -6.1%, -2.3%
52) CCCCN(CC)CCNc1c(NC2CCN(C(=O)OCC)CC2)c(=O)c1=O
 : 3.9%, 3.4%
53) CCOc1ccc(N=Cc2ccc3ccccc3c2)cc1
 : ., -3.5%
54) Cc1ccc2c(c1)N(Cc1ccc([N+](=O)[O-])cc1)C=NS2(=O)=O
 : ., 2.4%
55) O=C(Nn1cnnc1)c1cc([N+](=O)[O-])cc([N+](=O)[O-])c1
 : 3.4%, -0.6%
56) O=C(OCc1ccccc1)C1=NNC2C(=O)N(c3ccc(Br)cc3)C(=O)C12 (stereo unspecified)
 : ., 7.6%
57) Cc1cc(NC(=O)c2cc(C(C)C)on2)no1
 : 2.1%, 3.7%
58) COc1ccccc1Oc1ccc(Oc2ccccc2OC)cc1
 : -5.9%, 22.4%
59) CCn1nnc(NC(=O)COc2ccc(C3CCCCC3)cc2)n1
 : 7.7%, -0.7%
60) O=C(NCc1cn2ccsc2n1)c1c(F)cccc1Cl
 : 2.1%, -28.0%

15 structures out of the list, arranged by number of heavy atoms, ascending.
Sequence of screens: TDP1 block, N370S GC
37) O=C(NCCO)Nc1ccc2nsnc2c1
 : 3.7%, 0.9%
57) Cc1cc(NC(=O)c2cc(C(C)C)on2)no1
 : 2.1%, 3.7%
42) CCOC(=O)/C(C#N)=C1\CC2CCC1(C)C2(C)C (stereo unspecified)
 : 5.3%, 10.9%
55) O=C(Nn1cnnc1)c1cc([N+](=O)[O-])cc([N+](=O)[O-])c1
 : 3.4%, -0.6%
45) CCc1ccc(C(=O)NCC2COc3ccccc3O2)o1 (stereo unspecified)
 : 4.1%, 5.7%
51) Cc1ccc(C(=O)N2CCN(C(=O)CN3CCCC3)C2)cc1
 : -6.1%, -2.3%
54) Cc1ccc2c(c1)N(Cc1ccc([N+](=O)[O-])cc1)C=NS2(=O)=O
 : ., 2.4%
50) COc1ccc(NC(=O)c2cccnc2Nc2ccccc2)cc1
 : 3.9%, 8.0%
39) C=CCn1c(SCC(=O)NCc2ccco2)nnc1C1CCCCC1
 : 3.2%, 0.5%
47) NC(=O)NC(=O)COC(=O)[C@H](Cc1ccccc1)NC(=O)c1cccs1
 : 5.9%, 0.1%
56) O=C(OCc1ccccc1)C1=NNC2C(=O)N(c3ccc(Br)cc3)C(=O)C12 (stereo unspecified)
 : ., 7.6%
38) COc1ccc(CCNc2ccc(S(=O)(=O)N3CCCC3)cc2[N+](=O)[O-])cc1
 : 4.6%, 6.9%
46) CCOc1ccc(NC(=O)CCC(=O)NNS(=O)(=O)c2ccccc2[N+](=O)[O-])cc1
 : 5.1%, 11.9%
41) COc1ccccc1CN1CCN(C(CC(C)C)c2nnnn2Cc2cccs2)CC1 (stereo unspecified)
 : 2.8%, -17.5%
43) CC(=O)N1CCOc2ccc(S(=O)(=O)N3CCC(C(=O)Nc4ccccc4F)CC3)cc21
 : 0.2%, 1.7%

(continued)
Sequence of screens: TDP1 block, N370S GC
61) c1ccc(-c2cnnn2-c2ccccc2)cc1
 : ., 10.6%
62) COCCN(CC(=O)NCc1ccccc1)C(=O)CCC(=O)Nc1ccccn1
 : 1.0%, 5.9%
63) Cc1cc2n(n1)C(c1sccc1C)Nc1ccccc1-2 (stereo unspecified)
 : 0.0%, -10.1%
64) Cc1cccn2c(=O)c(C=O)c(N3CCN(c4ccccc4)CC3)nc12
 : -2.7%, 2.8%
65) O=C(O)c1ccc2c(c1)OCCO2
 : -1.0%, 6.0%
66) O=C(COc1ncnc2ccccc12)NCC1CCCO1 (stereo unspecified)
 : 1.2%, -4.2%
67) O=C(CCOc1ccccc1)NCC(c1ccco1)N1CCCCC1 (stereo unspecified)
 : 2.1%, -0.7%
68) Cn1c(=O)[nH]c(=O)c2c1nc(N1CCNCC1)n2Cc1ccccc1
 : ., -19.2%
69) COc1cc(C(=O)Oc2ccccc2N)cc(OC)c1OC
 : 4.8%, 3.4%
70) CCCCCCCCCSc1n[nH]c(N)n1
 : -1.0%, 25.2%
71) COc1ccc(S(=O)(=O)NCC2CCCN(Cc3cccc(C(C)=O)c3)C2)cc1 (stereo unspecified)
 : 1.3%, -11.5%
72) CCCOc1ccc(C2C3=C(CCCC3=O)N(CC(=O)O)C3=C2C(=O)CCC3)cc1OCC
 : ., -10.8%
73) Cc1ccc2nc(N3CCC(C(=O)NC4CCCCC4)CC3)sc2c1
 : 0.1%, -13.3%
74) COc1ccccc1OCC(=O)NCCCn1ccnc1
 : 4.9%, -7.0%
75) COc1ccc(CCNc2ccc(C(CC(N)=O)NC(=O)c3ccccc3)cc2[N+](=O)[O-])cc1 (stereo unspecified)
 : 2.5%, -7.3%
76) COc1ccc(C(=O)Nc2cccc(OC(=O)c3ccco3)c2)cc1
 : -10.5%, -6.2%
77) CN(C)S(=O)(=O)n1cc(/C=C(\NC(=O)c2ccccc2F)C(=O)N2CCOCC2)c2ccccc21
 : 1.6%, -0.7%
78) O=c1[nH]c(SCc2ccc(Cl)cc2)nc2c1CCC2
 : -4.2%, 1.3%
79) COC(=O)c1ccc(N=Cc2c(C(F)(F)F)[nH]n(C)c2=O)cc1
 : 2.4%, -4.7%
80) Cc1ccc(C(=O)Nc2cccc(C(F)(F)F)c2)cc1Nc1ccccn1
 : 0.0%, -1.3%
81) COc1ccc(Cl)cc1S(=O)(=O)N(C)CC(=O)NCc1ccc2c(c1)OCO2
 : 4.9%, -8.5%
82) Cc1ccc(NC(=O)CSCC(=O)Nc2ccc(S(=O)(=O)N3CCCC3)cc2)cc1
 : 0.2%, -1.0%
83) O=c1[nH]c2ccc(S(=O)(=O)NCc3ccccc3)cc2[nH]1
 : -1.2%, -1.7%
84) Clc1cccc(-c2nnc(-c3ccno3)o2)c1
 : ., -0.3%
85) O=C(CC1C(=O)NCCN1Cc1c(F)cccc1Cl)NCCc1ccccn1 (stereo unspecified)
 : 6.0%, 2.1%
86) C=CCN1C(=O)C(CC(=O)Nc2ccc(OC)cc2)N(Cc2ccco2)C1=S (stereo unspecified)
 : 3.2%, 1.7%
87) CS(=O)(=O)N(CC(=O)Nc1ccccc1C(=O)N1CCOCC1)c1ccc(Cl)cc1
 : 4.2%, 3.2%
88) O=C(Cn1cncn1)N/N=C/c1cc([N+](=O)[O-])ccc1O
 : 9.9%, -5.2%
89) O=C(Cc1ccc([N+](=O)[O-])cc1)Nc1cc(C(F)(F)F)cc(C(F)(F)F)c1
 : 1.3%, -22.4%
90) COc1ccccc1NC(=O)c1c(O)c2ccccc2[nH]c1=O
 : ., 2.2%
91) Cc1ccc(N(CC(=O)N/N=C/c2cc(C)n(-c3ccccc3)c2C)S(C)(=O)=O)c(C)c1
 : 8.8%, 3.0%
92) CC1CCCCC1NC(=O)Cc1ccc(S(=O)(=O)N2CCOCC2)s1 (stereo unspecified)
 : ., -15.4%
93) O=C(NCc1ccncc1)C(=O)Nc1nc(C23CC4CC(CC(C4)C2)C3)cs1
 : 9.1%, 26.1%
94) O=C(Nc1ccc(N2CCOCC2)cc1)c1cccc2c(Br)cccc12
 : ., -2.9%

Only part of the results is shown; most or all hits stand in other tables.
